# High-throughput results deposited in PubChem by ICCB-Longwood Screening Facility, Harvard Medical School.
# Mtb MbtI inh = MbtI salicylate synthase inhibition; P9WFX0; purified MbtI enzyme, fluorescence intensity read-out; inhibition, %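 (about 17 µg/mL by stock and volumes)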; actives 0.89% (n = 100,000);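 active = above 50% in both replicates, above 80% if mildly self-fluorescent; inactive = the rest, strongly fluorescent compounds included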;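 note: 0% = mean of negative and 100% = mean of positive controls; one replicate is shown; some compounds called inactive have numbers as strong as hits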
# Target sequence (P9WFX0 whole entry, looked up): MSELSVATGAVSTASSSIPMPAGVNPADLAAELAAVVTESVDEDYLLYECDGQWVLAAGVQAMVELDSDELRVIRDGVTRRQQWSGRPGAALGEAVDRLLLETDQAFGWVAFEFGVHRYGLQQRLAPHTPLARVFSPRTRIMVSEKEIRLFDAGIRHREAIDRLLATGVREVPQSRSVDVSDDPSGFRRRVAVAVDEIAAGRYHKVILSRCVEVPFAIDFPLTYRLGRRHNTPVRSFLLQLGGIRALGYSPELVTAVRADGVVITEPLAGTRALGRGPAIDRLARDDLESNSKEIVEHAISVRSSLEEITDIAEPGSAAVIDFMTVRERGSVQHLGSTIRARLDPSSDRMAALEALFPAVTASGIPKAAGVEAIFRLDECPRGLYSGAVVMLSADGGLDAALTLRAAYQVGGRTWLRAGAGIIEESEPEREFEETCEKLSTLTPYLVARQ
# Mtb MenB inh = Mtb MenB enzyme inhibition; AID 540299; actives 0.43% (n = 100,000); P9WNP5; inhibition, %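 (about 12 µg/mL by stock and volumes)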; MenB enzyme assay, absorbance read-out; some hits fall short of the stated cut;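 active = mean of two replicates above 30%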;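 note: 0% = no compound and 100% = wells with inactive enzyme; the first replicate is given; strong numbers were not always called active; inactives centre near -10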
# Target sequence (P9WNP5 whole entry, looked up): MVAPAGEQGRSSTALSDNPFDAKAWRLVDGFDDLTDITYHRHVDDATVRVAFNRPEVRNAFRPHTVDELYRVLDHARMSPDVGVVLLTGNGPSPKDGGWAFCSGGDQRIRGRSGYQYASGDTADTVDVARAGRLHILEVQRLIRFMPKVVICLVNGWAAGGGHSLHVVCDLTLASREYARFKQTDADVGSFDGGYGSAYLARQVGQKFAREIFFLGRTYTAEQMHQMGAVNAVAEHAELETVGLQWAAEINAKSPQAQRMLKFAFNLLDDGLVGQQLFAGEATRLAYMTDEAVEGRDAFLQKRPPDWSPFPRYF
# PV pol inh = poliovirus RNA polymerase inhibition | AID 588519 | P03300 | % elongation, % (compound at 16.7 µg/mL) | poliovirus polymerase elongation, fluorescence polarization; stronger effect = lower value | actives 0.66% (n = 150,000); in the data active = % elongation below about 90%; note: some results filed as inactive read as strong as hits
# PV pol inh intensity = second read-out of PV pol inh, no call of its own (marks repeat the call); % elongation; measured here: total intensity read-out; formula for this scale not given here;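 total fluorescence in place of polarization; lower means less elongation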
# The depositor's hits bear a star; . = not tested or not shown; & = joins results of further samples.
SMILES,Mtb MbtI inh,Mtb MenB inh,PV pol inh,PV pol inh intensity
CC1Cc2ccccc2N1C(=O)c1ccnc(C(C)(C)C)c1 (stereo unspecified),12,2,100,101
Cc1ccc(NC(=O)COC(=O)C2CCCN2C2=NS(=O)(=O)c3ccccc32)cc1C (stereo unspecified),0,-10,106,106
Cc1ccc(C(CC(=O)O)NC(=O)CN2C(=O)c3ccccc3C2=O)cc1 (stereo unspecified),-34,-2,95,99
O=C(Cc1ccc2c(c1)OCCO2)N/N=C/c1ccc(-c2ccc(F)cc2)o1,9,-70,104,94
O=C(c1c[nH]c(=O)[nH]c1=O)N1CCc2ccccc2C1,-10,-14,102,96
CC(C)(C)CC(=O)NCc1cn2ccsc2n1,-1,-10,101,108
CSC(=S)NN=C1CCCC1,20,-45,137,205
Cc1ccc(C(=O)c2c(N)sc3c2CCC3)cc1,37,.,105,103
COc1cc(CC(=O)OCC(=O)N(C)C2CCCCC2)cc(OC)c1OC,3,8,103,98
CC1CN(S(=O)(=O)c2ccc(N3C(=O)CC4(CCCC4)C3=O)c(Cl)c2)CC(C)O1 (stereo unspecified),-7,-4,111,107
CSc1n[nH]c(N)c1S(=O)(=O)c1ccccc1,8,-21,103,102
COC(=O)/C(=C(/O)CSc1nnc(-c2ccc(C)cc2)o1)c1nc2ccccc2[nH]1,4,7,98,102
Cc1nn(Cc2ccccc2Cl)c2sc(C(=O)NCCN3CCOCC3)cc12,-8,-26,100,97
CC1CCC(NC(=O)CN2C(=O)CSc3ncccc32)CC1 (stereo unspecified),3,-6,103,103
O=C(CS(=O)(=O)c1cn(Cc2ccc(Cl)cc2)c2ccccc12)N1CCc2ccccc21,-4,-2,100,103
COc1ccccc1C1C2=C(CCCC2=O)Nc2ccc3ncccc3c21 (stereo unspecified),.,-16,108,115
O=C(CCSc1ccccc1C(=O)O)Nc1ccc(F)cc1,-1,.,101,102
COc1ccc(C(=O)OCC(=O)n2c(C)c(C)c3ccccc32)cc1,-5,0,102,101
Cc1nc(SCc2cc(=O)n3c(C)cccc3n2)n(C2CCCC2)c1C,34,-4,108,133
NS(=O)(=O)c1ccc(NC(=O)CC(=O)Nc2ccc(S(N)(=O)=O)cc2)cc1,-16,-2,105,107
Cn1cccc1C(=S)N=P(C1CCCCC1)(N1CCOCC1)N1CCOCC1,11,-22,102,106
O=C(c1n[nH]c(=O)c2ccccc12)N1CCC(n2c(=O)[nH]c3ccccc32)CC1,0,0,102,111
CCCCNC(=O)C1(NC(=O)Nc2ccccc2)CCCCC1,-9,-14,104,102
Cn1c(-c2ccc(NC(=O)c3ccccc3)cc2)n[nH]c1=S,38,0,99,102
COC(=O)C1CCCN1S(=O)(=O)c1ccc(C)cc1 (stereo unspecified),0,-23,101,101
CN(C)CCCN1C(=O)C(=O)/C(=C(/O)c2ccc(S(=O)(=O)N(C)C)cc2)C1c1ccccc1 (stereo unspecified),8,5,101,103
O=C(NCCN1CCOCC1)c1c(O)c2ccccc2[nH]c1=O,.,12,107,116
Cc1cccnc1NC(=O)c1c(O)c2cc(F)cc3c2n(c1=O)C(C)CC3 (stereo unspecified),6,25,103,102
O=C(O)/C=C/c1ccc(-c2ccc(Br)cc2)o1,20,-16,102,104
Cc1ccc(CC2(O)CC(C)N(C)CC2C)cc1 (stereo unspecified),.,0,105,99
O=C(Cc1n[nH]c(=O)c2ccccc12)N1CCCc2ccccc21,-2,-7,103,110
CCn1nc(NC(=O)c2cccs2)c2cc3ccccc3nc21,-75,-88,100,103
COCc1c(C(=O)Nc2ccc(F)cc2)oc2ccccc12,-12,-14,99,106
CCOC(=O)/C=C\c1cn(-c2ccccc2)nc1-c1ccccc1,-9,.,101,98
Cc1ccc(Cn2cc3c(n2)-c2c(oc(C(=O)NCCCN4CCCCCC4)c2C)CC3)cc1,24,-9,100,101
CSC(=Nc1ccccc1C(F)(F)F)N1CCCC1,-4,3,101,104
Cc1ccc(SC(CC(=O)c2ccc(C(C)(C)C)cc2)C(=O)O)cc1 (stereo unspecified),.,-6,99,102
Cc1cc(N/C=C(\C#N)C(=O)c2cc(C)oc2C(F)(F)F)no1,8,10,101,104
O=C(O)COc1ccc(NC(=O)c2ccccc2F)cc1,10,15,101,101
CSc1nc(Sc2ccccc2)c(C#N)c(Sc2ccccc2)n1,-5,-23,100,92
O=C(N/N=C/c1ccc(F)cc1)c1n[nH]c2c1CCC2,5,-25,104,102
N#CCOc1ccc(Cl)c(Cl)c1,-1,17,100,103
COC(=O)c1cnn2c1NCN(Cc1ccccc1)C2,-9,-10,103,106
CCc1ccc(NS(=O)(=O)c2ccc3c(c2)CCCN3C(C)=O)cc1,3,-13,102,103
C=CCN1C(=O)C(CC(=O)NCC)SC1=Nc1ccccc1OC (stereo unspecified),-9,-9,102,102
CCOC(=O)c1cn(CC)c2cc(F)c(F)cc2c1=O,-208,-32,101,104
NC(=O)C1CCN(CC(O)COc2ccc(F)cc2)CC1 (stereo unspecified),-7,5,106,114
c1ccc(CCC2CCCCN2)cc1 (stereo unspecified),-2,-10,101,101
CC(C)c1nc2ccccc2n1CCCOc1ccccc1,0,-26,103,95
O=c1[nH]c2ccccc2cc1-c1noc(-c2ccccc2)n1,.,7,106,100

# New compounds follow.
SMILES,Mtb MbtI inh,Mtb MenB inh,PV pol inh,PV pol inh intensity
Cc1nc(C(F)(F)F)ccc1C(=O)Oc1ccc(OC(F)(F)F)cc1,-8,-19,110,113
COc1ccc(CCNC(=O)c2nc(S(C)(=O)=O)ncc2Cl)cc1OC,-4,-10,104,105
COc1ccc(CNC2CCCC2)cc1,-19,-11,105,107
COc1ccc(Nc2cc(C)nc(-c3ccccc3)n2)cc1,12,6,103,97
O=C(CN1C(=O)c2cccc3cccc1c23)N(Cc1ccccc1)Cc1ccccc1,-70,-10,101,104
Cc1c(C#N)c(NC(=O)CSC(=S)N2CCCC2)n(Cc2ccco2)c1C,2,-30,102,108
O=S(=O)(NCc1ccccc1)c1ccc(-n2cccn2)cc1,-20,-5,101,103
COC(=O)c1cc(S(=O)(=O)NCCCN2CCc3ccccc3C2)c[nH]1,5,0,102,99
CCc1nc(NCCN2CCOCC2)c(C#N)c2c1CCCC2,66,-9,99,101
NNC(=O)c1csc(-c2ccncc2)n1,8,4,101,95
COc1ccccc1CN(C)C(C)C(=O)Nc1ccc(S(N)(=O)=O)cc1 (stereo unspecified),2,5,107,109
C=CCNC(=O)c1c(N)n(-c2cccc(C(=O)O)c2)c2nc3ccccc3nc12,109,-79,103,106
C=CCN(Cc1nc(-c2ccccc2)no1)C(=O)c1ccccc1,-12,0,98,102
C1=C(c2ccccc2)N2CCCCN=C2S1,3,6,102,97
Cn1nnnc1SCCNCC#Cc1ccccc1,-3,14,99,103
Cc1ccccc1CSCC(=O)Nc1c[nH]c(=O)[nH]c1=O,-5,-34,99,101
Cc1ccc(-c2n[nH]n3c2nc(=O)c2ccccc23)cc1,-7,7,101,108
O=c1c2c(F)c(F)c(F)c(F)c2on2c3c(cc12)CCCC3,-12,-10,87*,93*
Cc1cccc(N2CCN(C(=O)c3ccc(CS(=O)(=O)Cc4cccc(Cl)c4)o3)CC2C)c1 (stereo unspecified),-2,0,101,102
CC(=O)OCOC(c1ccc2ccccc2c1)P(=O)(OCOC(C)=O)OCOC(C)=O (stereo unspecified),-9,2,100&99,101&99

# A section from the list above, as a working copy:
SMILES,Mtb MbtI inh,Mtb MenB inh,PV pol inh,PV pol inh intensity
COc1ccccc1CN(C)C(C)C(=O)Nc1ccc(S(N)(=O)=O)cc1 (stereo unspecified),2,5,107,109
C=CCNC(=O)c1c(N)n(-c2cccc(C(=O)O)c2)c2nc3ccccc3nc12,109,-79,103,106
C=CCN(Cc1nc(-c2ccccc2)no1)C(=O)c1ccccc1,-12,0,98,102
C1=C(c2ccccc2)N2CCCCN=C2S1,3,6,102,97

# (further entries)
SMILES,Mtb MbtI inh,Mtb MenB inh,PV pol inh,PV pol inh intensity
CCC(Sc1nc2ncccc2o1)C(=O)Nc1cc(OC)ccc1OC (stereo unspecified),-4,8,101,102
Cc1cc(C)n2nc(CC(=O)N3CCN(c4ccccc4)CC3)nc2n1,-2,25,103,101
COc1cc(NC(=S)N2CCN(CCO)CC2)c(OC)cc1Cl,-7,-8,101,103
O=C(O)C1CCN(C(=O)CSc2nnc(-c3ccccc3)c(-c3ccccc3)n2)CC1,-2,-11,99,104
CCN(CC)c1nc(C#N)nc(OC)n1,.,-7,87*,90*
COc1ccc(NC(=O)c2cc3ccc(O)cc3oc2=Nc2ccc(C(=O)O)cc2)cc1,6,-89,107,109
Clc1cc(N=Cc2cccnc2)ccc1N=Cc1cccnc1,-5,.,102,103
CCN(CC)Cc1c(C)[nH]c2ccccc2c1=O,.,6,105,116
O=C1OC(Nc2ccc3ncccc3c2)c2ccccc21 (stereo unspecified),5,19,99,102
CC(C)=N/N=c1\sc2ccccc2n1C,5,-6,99,102

# Complete entries, looked up by structure. Screens in order: Mtb MbtI inh, Mtb MenB inh, PV pol inh, PV pol inh intensity
# Entry for `COc1ccc(CCNC(=O)c2nc(S(C)(=O)=O)ncc2Cl)cc1OC` → -4, -10, 104, 105
# Entry for `CCOC(=O)/C=C\c1cn(-c2ccccc2)nc1-c1ccccc1` → -9, ., 101, 98
# Entry for `O=C(Cc1n[nH]c(=O)c2ccccc12)N1CCCc2ccccc21` → -2, -7, 103, 110
# Entry for `CC(C)c1nc2ccccc2n1CCCOc1ccccc1` → 0, -26, 103, 95

# (next part)
SMILES,Mtb MbtI inh,Mtb MenB inh,PV pol inh,PV pol inh intensity
CCN(CC)c1nc(NC(C)(C)C)nc(NC(C)(C)C)n1,.,-5,102,94
O=C(NCc1ccccc1)c1cc(S(=O)(=O)N2CCCCC2)ccc1N1CCOCC1,-5,-42,95,86
CC1CN(S(=O)(=O)c2ccc3c(c2)n(C)c(=O)c(=O)n3C)c2ccccc2S1 (stereo unspecified),-1,13,101,97
Cn1c(-c2ccccc2)n[nH]c1=S,30,-25,101,100
CN(c1ccc(OCC(=O)NCC(F)(F)F)cc1)S(=O)(=O)c1ccccc1,16,-5,101,103
O=C(NCc1ccc2c(c1)OCO2)C1CCCCC1,.,-8,102,105
Cc1ccc(Cl)cc1NC(=O)COC(=O)c1n[nH]c2ccccc12,-2,.,102,103
COc1ccc(/C=C(\C#N)c2ccc(OC)cc2)cc1,8,-29,94,74
Cc1cccc(NC(=O)C23CC4CC(C2)CC(n2nnc(C)n2)(C4)C3)c1,-4,-8,100,102
N#CCc1n[nH]c(=O)c2ccccc12,-4,-21,104,108
Cc1cc(C(=O)N2CCCC2)c2c(C)nn(-c3ccccc3)c2n1,-4,-20,101,104
Cc1onc(-c2ccccc2)c1C(=O)OCC(=O)N1CCCc2ccccc21,-1,-7,103,109
O=C(Cc1ccccc1)NCCc1c[nH]c2ccccc12,-1,-6,103,106
CCn1nnc(NC(=O)c2ccccc2)n1,-1,-16,100,102
Cc1cc(C(=O)OCc2cscn2)c2ccccc2n1,5,4,104,107
CNC(C)c1ccc2c(c1)OCCO2 (stereo unspecified),.,-7,104,114
CCOc1ccc(S(=O)(=O)/N=C(\N)c2ccccc2)cc1,-10,-1,101,104
COc1ccc(NS(=O)(=O)c2ccc(N3C(=O)CC4(CCCC4)C3=O)c(Cl)c2)c(OC)c1,-7,-8,107,107
CCCC1C(C#N)=C(N)SC(N)=C1C#N,.,-20,48,261
FC(F)(F)C1CCCN(c2nsc3ccccc23)C1 (stereo unspecified),46,-23,101,101
COc1cc(C(F)(F)F)nc2c(I)c(C(C)(C)C)nn12,-9,-23,104,105
CC(=O)N1CCN(c2ccc(OC[C@H]3CO[C@](Cn4ccnc4)(c4ccc(Cl)cc4Cl)O3)cc2)CC1,-9,0,101,100
CCOC(=O)c1c(NC(=O)c2nc3ncccn3n2)sc2c1CCC(CC)C2 (stereo unspecified),10,-3,100,102
CCn1c(C(=O)O)cc2oc(C)cc21,17,-8,102,101
CN(C)/C=N/C1N=C(C2CC2)N(C)C(=O)N1 (stereo unspecified),8,3,108,113
Cc1ccc(NC(=O)/C(CN(C)C2CCCCC2)=N\O)cc1,-2,0,100,103
O=C(Oc1cc(=O)oc2ccccc12)c1ccccc1,3,-148,101,101
COc1cc(NC(=O)CC2OCCN(Cc3ccccc3)C2=O)cc(OC)c1 (stereo unspecified),11,-1,101,100
N#C[C@@H]1[C@@H](C(=O)c2ccc(F)cc2)N2C=Cc3ccccc3[C@@H]2[C@@]1(C#N)C(=O)c1ccccc1,.,-7,92,222
FC(F)(F)c1nc(N2CCCCC2)nc2c1CCCCC2,-6,-7,100,102
O=C(CCC1CCCCC1)Nc1ccc(-c2cn3cccnc3n2)cc1,79,-11,103,106
CC1=NC=CC2NC(=O)C(C#N)=CC12 (stereo unspecified),-54,-5,98,107
COc1ccc(/C=C/C(=O)N(CC(C)C)CC(C)C)cc1,23,-27,100,103
O=C1N(c2ccccc2)CCN1c1ccccc1,-6,-21,99,103
O=C(Nc1ccccc1)Nc1ccc(OC(F)F)cc1,-9,-9,104,103
Cc1ccccc1N=CC=Nc1ccccc1C,-3,-9,104,107
C=CCNC(=S)NC1(C)CCS(=O)(=O)C1 (stereo unspecified),-13,-6,101,104

# Five compounds from above with just Mtb MenB inh, PV pol inh and Mtb MbtI inh.
Structure	Mtb MenB inh	PV pol inh	Mtb MbtI inh
C=CCN(Cc1nc(-c2ccccc2)no1)C(=O)c1ccccc1	0	98	-12
C1=C(c2ccccc2)N2CCCCN=C2S1	6	102	3
Cn1nnnc1SCCNCC#Cc1ccccc1	14	99	-3
Cc1ccccc1CSCC(=O)Nc1c[nH]c(=O)[nH]c1=O	-34	99	-5
Cc1ccc(-c2n[nH]n3c2nc(=O)c2ccccc23)cc1	7	101	-7

# An unsorted share of the library; overall some 2% were active at least once.
